From PubChem
gsp antag: antagonists of gsp mutant (McCune-Albright syndrome); 0.4% of 340,000 active; Potency, µM (highest dose often 76.9 µM), inactives show top-dose activity change, negative = inhibition, hits mostly inhibitors; gsp-mutant cells, cAMP HTRF, 30 min; control for the full effect not named in the record; active = falling curve of any shape with a large fitted effect; inconclusive = falling curve, mostly with a smaller effect; inactive = flat or rising curve; cell line not stated here;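 further: intracellular cAMP measured with PDE inhibitor Ro 20-1724 present during compound exposure; potency means the concentration at half of the fitted maximal effect; on the % scale 0 is the no-effect control and ±100 the full control effect; nearly all actives have a fitted effect of over 65% in size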
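G418-selected cells were plated in DMEM/10% FBS for 16-24 h at 37C, then treated with compounds plus the PDE inhibitor […] (300 uM solution added) for 30 min at 37C. Intracellular cAMP was measured by HTRF after 30 min lysis at room temperature.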
ClpP mod: qHTS Assay for Activators of ClpP; purified B. subtilis ClpP, FRET peptide cleavage, 20 min; Potency, µM (top dose mostly 57.5 µM), for the others: at the highest dose activity change, negative = active; ATP-dependent Clp protease proteolytic subunit (Bacillus subtilis (strain 168)), P80244; 1.9% of 340,000 active; active = well fitted falling curve with a large enough effect; inconclusive = small, poorly fitted or top-dose-only effect; inactive = no such curve, though single readings can be large or run the other way; further: potency means the concentration at half of the fitted maximal effect; the source files actives as falling curves though it sought activators and does not explain the sign; nearly all actives have a fitted effect of over 65% in size; many hits overshoot -100%
Target sequence (P80244 whole entry, looked up): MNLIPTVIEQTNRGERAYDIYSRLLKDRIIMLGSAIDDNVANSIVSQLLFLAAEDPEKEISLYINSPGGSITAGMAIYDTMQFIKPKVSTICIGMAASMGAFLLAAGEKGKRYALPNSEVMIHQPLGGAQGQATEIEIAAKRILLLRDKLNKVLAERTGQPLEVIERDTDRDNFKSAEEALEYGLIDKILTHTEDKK
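Buffer: 100 mM Tris/HCl pH8, 100 mM KCl, 0.05% low protease BSA, 2.5% glycerol, 0.01% Tween-20. ClpP 10 microg/mL final; 20 min RT; delta FRET normalized to ADEP and DMSO controls.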
gsp agonist: gsp mutant agonism; gsp mutant cells, cAMP HTRF, 30 min; control for the full effect not named in the record; Potency, µM (highest dose often 76.9 µM), for the others: top-dose activation (cAMP increase), usual class: activators; 0.13% of 340,000 active; active = well fitted activation curve with a large enough effect; inconclusive = small, poorly fitted or top-dose-only effect, or another doubt; inactive = no such curve, though single readings can be large or run the other way; cell line not stated here;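 further: phosphodiesterase inhibitor Ro 20-1724 added with compounds to block cAMP breakdown; potency means the concentration at half of the fitted maximal effect; nearly all actives have a fitted effect of over 60% in size; about a fifth of the inactives were tested at one dose only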
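Cells stably selected in G418 were plated at 2000/well, grown 16-24 hr, then given compounds in DMSO with the PDE inhibitor […] (300 uM solution added) for 30 min at 37C; cAMP was read by HTRF.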
Sfp inh: inhibitors of Bacillus subtilis Sfp phosphopantetheinyl transferase; Potency, µM, inactives show max response, negative = inhibition, most hits filed as inhibitors; Q9F4F7; Biochemical Sfp PPTase activity, qHTS; AID 1490; 3.5% of 310,000 active; active means well fitted inhibition curve with a large enough effect; inconclusive means small, poorly fitted or top-dose-only effect, or another doubt; inactive means no such curve, though single readings can be large or run the other way;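 further: the enzyme is Sfp with the accession as filed and its product quenches rhodamine fluorescence; potency means the concentration at half of the fitted maximal effect; 0% = enzyme reaction without inhibitor and -100% = no enzyme wells; top concentration of the series not given in the record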
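Step 1, compound plus 15 nM Sfp-PPTase, 15 min, room temperature. Step 2, add rhodamine-CoA (5 uM) and BHQ-2-YbbR (12.5 uM). Step 3, read 525/598 nm fluorescence at 0 and 30 min.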
D2 PAM: potentiates the human D2 dopamine receptor allosterically; P14416; DiscoveRx D2 beta-arrestin cells, luminescence, 90 min; 100% = 57 uM dopamine signal; potentiation, % (concentration not given with the values); 0.23% of 360,000 active; active = potentiation of 50% or more; inconclusive = 30% to 50%; inactive = 30% or less;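 further: compound concentration not given in the record; tested on top of an EC20 dose of dopamine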
Target sequence (P14416 whole entry, looked up): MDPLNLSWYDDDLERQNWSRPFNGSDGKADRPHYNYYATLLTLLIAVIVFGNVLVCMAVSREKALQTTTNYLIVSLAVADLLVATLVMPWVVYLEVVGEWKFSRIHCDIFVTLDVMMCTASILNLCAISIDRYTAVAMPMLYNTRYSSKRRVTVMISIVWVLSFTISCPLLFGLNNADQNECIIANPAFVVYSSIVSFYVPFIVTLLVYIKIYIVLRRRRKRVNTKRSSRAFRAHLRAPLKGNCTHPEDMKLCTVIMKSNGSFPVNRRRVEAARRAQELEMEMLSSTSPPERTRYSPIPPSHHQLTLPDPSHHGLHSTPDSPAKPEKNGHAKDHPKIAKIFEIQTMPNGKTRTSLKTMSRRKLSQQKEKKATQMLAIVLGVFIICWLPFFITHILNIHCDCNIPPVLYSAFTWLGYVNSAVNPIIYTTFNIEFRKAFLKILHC
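D2 cells co-treated with compound plus 50 nM dopamine (EC20) for 90 min at 37 deg C to detect potentiation. Beta-arrestin recruitment was read as enzyme-fragment luminescence after 1 h at ambient temperature. Full response was set by 57 uM dopamine.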
TRPV1 potentiator: enhances activation of the human vanilloid receptor TRPV1; Q8NER1; TRPV1-expressing cells, Fluo-8 calcium influx, capsaicin EC20 potentiation; host cell line not named in the record; control for the full effect not named in the record; potentiation, % at 8.33 µM; 0.02% of 320,000 active; AID 540277; active means potentiation above 80%; inconclusive means 30% to 80%; inactive means below 30%; further: 0% is about no effect
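Fluo-8 calcium influx in TRPV1-expressing cells, kinetic read (ex 480/em 520 nm). Compound added and read 3 min for agonist activity, followed by capsaicin at EC20 final and 2 min further read for enhancement.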
Menin-MLL FL inh: menin-MLL binding inhibition, fluorescein peptide; Fluorescence polarization, fluorescein-MLL peptide displacement from menin; FP activity change, % at 61.4 µM; 290,000 tested, under 10 active; AID 1766; inconclusive = falling polarisation curve, or a change in total fluorescence; inactive = total fluorescence flat and polarisation flat or rising; no compound was filed as active; the % refers to the polarisation; negative = inhibition;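 further: % of control where 0% means no effect; inhibitors lower the polarisation; unlabelled MLL peptide was the positive control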
* hit, by the source's call; ? = inconclusive; / = not tested or not shown; & = joins results of further samples; [ ] = dose if it differs, or a comment.

# | structure | gsp agonist | Sfp inh | D2 PAM | Menin-MLL FL inh | ClpP mod | gsp antag | TRPV1 potentiator
1 | Cc1nc(N)sc1N=Nc1ccc(Br)cc1 | 1% | -14% | -15 | 1.4 | -0.1% | -4% | 7
2 | C=CCc1ccc(OCCCOc2ccc(C(=O)O)cc2)c(OC)c1 | 11%[15.4 µM] | -4% | -3 | -0.8 | / | -12% | -5
3 | CCCOC1CCCN(C(=O)c2cc(COc3c(F)cccc3F)on2)C1 (stereo unspecified) | 14%[15.4 µM] | 10% | -7 | / | -0.6% | 3% | -9
4 | CCS(=O)(=O)N1Cc2ccccc2CC1C(=O)Nc1cccc(OC)c1 (stereo unspecified) | -8% | 6% | -2 | 6.7 | / | 8% | 23
5 | CCOC(=O)c1ccc(NC(=O)CNNC(=O)COc2ccccc2C)cc1 | 22% | / | -1 | / | -0.4% | -1% | /
6 | CC(C)CCN(C(=O)CNC(=O)c1cccs1)C(C(=O)NC1CCCC1)c1ccncc1 (stereo unspecified) | 5% | 17% | -3 | 1.4 | -1.0% | -2% | 3
7 | COc1cccc(NC(=O)CSCc2cc(=O)n3ccsc3n2)c1 | 20% | 2% | -6 | 0.5 | -4.4% | 10% | 5
8 | COc1ccc(OC)c(CCNC(=O)c2ccc(NC3=NC4CS(=O)(=O)CC4S3)cc2)c1 (stereo unspecified) | -40%[inhibitor] | 12% | -3 | 3.3 | 0.9% | 5% | -25
9 | Cc1ccc(C)c(NC(=O)CSc2ccc(-c3ccco3)nn2)c1 | -27%[15.4 µM] | 14µM* | -1 | 9.7 | -1.6% | 8% | 12
10 | C[n+]1cn(/N=C/c2ccccc2)c2ccccc21 | 6% | 3% | -13 | -0.9 | -1.6% | 9% | -16
11 | Cc1cc(SCC(=O)N/N=C/c2ccc(O)cc2O)c(C)cc1Br | 25% | -19% | 22 | -1.6 | 2.4% | ? | -7
12 | CCOC(=O)N1CCN(C(=O)c2c[nH]c3ccc(S(=O)(=O)N(C)c4ccc(F)cc4)cc3c2=O)CC1 | 6% | 13% | -9 | / | 3.9% | 3% | 2
13 | CCCS(=O)(=O)Nc1ccc(-c2cn3c(n2)SCC3)cc1 | ? | -22% | -2 | 1.6 | -19% | 2% | -12
14 | O=C(Nc1ccc(S(=O)(=O)N2CCCCC2)cc1)C1CC(=O)N(c2ccc(F)cc2)C1 (stereo unspecified) | -15% | 4% | -7 | 5.0 | / | -4% | 5
15 | Cc1nc(N2CCN(c3ccccc3)CC2)nc2c1C(=O)CC(c1ccccc1)C2 (stereo unspecified) | 17% | -10% | -3 | 3.8 | ? | -3% | -2
16 | CC(=O)Nc1ccccc1C(=O)C(=O)O | -11% | 10%&15% | -27 | -0.3&2.1 | 2.0% | 3% | /
17 | COC(=O)c1ccc(S(=O)(=O)NCCc2ccccc2OC)n1C | -16%[15.4 µM] | 11% | -6 | -0.5 | / | ? | -23
18 | O=C(COc1ccc(Cl)cc1Cl)N/N=C/c1ccccn1 | 26% | -30% | -8 | / | 1.1% | -3% | 8
19 | Cc1noc(C)c1C(=O)N1CCC(Cc2ccccc2)CC1 | -5% | 12% | 0 | 1.5 | 0.4% | 7% | -6
20 | CCCNC(=O)C1(CC2CC(c3ccccc3)=NO2)CCN(C(=O)C2CCCC2)CC1 (stereo unspecified) | / | / | -4 | / | -0.4% | -1% | -15
21 | COc1ccc(CC(=O)NNC(=O)CCc2ccccc2)cc1OC | 2%[15.4 µM] | -3% | 9 | -3.9 | / | 22% | -19
22 | CC(=O)Nc1ccc(S(=O)(=O)NCCSCc2ccco2)cc1 | 15% | 32µM* | -4 | ? | -1.9% | -22% | 0
23 | CCOC(=O)c1cnc2ccc(C)cc2c1Sc1ccccc1C(=O)OC | -5% | -5% | -5 | 0.0 | -1.3% | -5% | -20
24 | O=C1CC(NCc2cccs2)C(=O)N1c1ccc(Cl)cc1 (stereo unspecified) | 3% | -23% | -7 | 7.3 | -0.5% | 4% | 2
25 | N/C(=N\OS(=O)(=O)c1cc(Cl)ccc1Cl)c1ccncc1 | -1% | 14% | 0 | 3.7 | -0.8% | 12% | 7
26 | O=C(COC(=O)CSc1ccc(F)cc1)NCc1ccco1 | -14% | / | -2 | / | -1.2% | -13% | -13
27 | CCNS(=O)(=O)c1ccc2c3c(cccc13)C(=O)N2 | 18% | 8% | -5 | -0.1 | 32µM* | 15% | 7
28 | Cn1c(=O)c2c(nc(CN3CCN(CCO)CC3)n2CCc2ccccc2)n(C)c1=O | -55%[inhibitor] | 8% | -7 | -6.5 | -5.1% | 8% | -4
29 | O=C(Nc1cc(S(=O)(=O)N2CCCC2)ccc1Cl)c1cc(F)c(F)c(F)c1F | 23% | / | -4 | / | / | -2% | /
30 | Cc1ccc(N(CC(=O)N/N=C/c2cccc(Br)c2)S(C)(=O)=O)cc1 | 16% | 7% | -38 | ? | -0.9% | -5% | 9
31 | O=C(CCN1C(=O)c2ccccc2C1=O)Nc1ccncc1 | 4% | 9% | -5 | 0.2 | 5.3% | 4% | 4
32 | O=C(NCc1ccncc1)C(=O)NCC1OCCCN1S(=O)(=O)c1ccccc1 (stereo unspecified) | -3% | 3% | -1 | 3.8 | -1.1% | 9% | 0
33 | O=C(Nc1ccc2c(c1)OCO2)c1ccc(N2C(=O)c3ccccc3C2=O)cc1 | -16%[15.4 µM] | -12% | -9 | 0.0 | / | 4% | ?
34 | O=C(CN(Cc1ccc(F)cc1)C(=O)CNS(=O)(=O)c1ccc(Cl)cc1)NCC1CCCO1 (stereo unspecified) | -2%[15.4 µM] | 1% | -3 | 4.6 | / | 2% | 4
35 | Cn1nnnc1NCc1ccc(Cl)cc1 | -3%[15.4 µM] | 22% | -9 | 0.5 | / | / | -10
36 | Cc1nonc1NC(=O)CSc1nnc(-c2ccoc2C)n1C | -4% | -24% | -3 | 3.2 | 1.1% | -12% | 22
37 | S=C(Nc1ccc(Cl)cc1Cl)N1CCN(c2ccccn2)CC1 | 22% | -8% | -1 | 4.6 | -9.8% | 2% | 11
38 | CN(CCC#N)c1ccc(C=C(C#N)c2ccc(Br)cc2)cc1 | ? | / | 0 | / | 0.8% | / | /
39 | O=C(COC(=O)c1ccc(S(=O)(=O)N2CCOCC2)cc1)Nc1nc(-c2ccccc2)cs1 | ? | -3% | -8 | 5.0 | 0.4% | -11% | 10
40 | CCOc1ccc(N(CC(=O)Nc2ccccc2C)S(=O)(=O)c2c(C)noc2C)cc1 | -143%[inhibitor] | 5% | -7 | 2.4 | 0.0% | 15% | /
41 | CCOC(=O)N1CCN(S(=O)(=O)c2c(C(=O)N3CCCCC3)c(C)n(C)c2C)CC1 | 0% | 4% | -1 | / | -3.2% | 11% | 1
42 | C=CCSc1n[nH]c2nc3c(c(=O)n12)C1(CCCC1)Cc1ccccc1-3 | -5% | 21% | -9 | 1.0 | ? | 0% | 9
43 | COc1ccc(S(=O)(=O)N2CCCCC2)cc1NC(=O)c1ccccc1 | 11%[15.4 µM] | / | 5 | / | / | 4% | 5
44 | C=CCc1c(C)nc2c(-c3ccccc3)cnn2c1N1CCOCC1 | -24%[15.4 µM] | -4% | 1 | 2.0 | / | 0% | -1
45 | NC(=O)C(=O)N/N=C/c1cccc(C(F)(F)F)c1 | 1%[15.4 µM] | 21% | 7 | 0.8 | / | -5% | 2
46 | O=C(Cc1ccc([N+](=O)[O-])cc1)Oc1ccccc1 | -11% | / | -4 | / | / | 1% | /
47 | CC(C)(C)c1ccc(C(=O)Cn2nc(C(=O)O)c3ccccc3c2=O)cc1 | 8% | 8% | -11 | 3.1 | -3.2% | ? | -10
48 | CCn1cc(CN2CCC(n3nccc3NC(=O)Cc3ccccc3)CC2)cn1 | ? | 12% | -19 | / | -1.6% | 12% | 4
49 | COc1ccc(N=C2SC(C(=O)O)CC(=O)N2Cc2ccc(OC)c(OC)c2)cc1 (stereo unspecified) | -44%[inhibitor] | 8% | -15 | 0.2 | -1.2% | -18% | 4
50 | CCOC(=O)C1(CCc2ccccc2)CCN(Cc2ccc(C(=O)OC)cc2)CC1 | -7% | 11% | -29 | 3.5 | 0.1% | -10% | -7
51 | Cc1ccc(C2C3=C(CC(C)(C)CC3=O)Nc3n[nH]c(C)c32)cc1 (stereo unspecified) | -35%[inhibitor] | -13% | -7 | -1.2 | 25µM* | -2% | 3
52 | O=C(CCC(=O)OCc1ccc(Br)cc1)Nc1ccccc1 | -3%[15.4 µM] | 1% | 0 | 3.7 | -1.0% | 17% | -8
53 | COC(=O)c1c(NC(=O)C2SC(=NC3CCCCC3)C(C(N)=O)=C2N)sc2c1CCCC2 (stereo unspecified) | 12% | 10% | -26 | 9.1 | -4.7% | 13% | 8
54 | Cc1ccc(Cc2c(-c3ccc(F)cc3)nc3cc(C)ccn23)cc1 | ? | / | -1 | / | 4.3% | / | /
55 | O=C(NCC(=O)N1CCCCCCC1)c1ccc(Cl)c(Cl)c1 | -39%[inhibitor] | / | -7 | / | -0.2% | / | /
56 | C[C@@H]1ON(C)[C@H]2C[C@H]3c4[nH]c5ccccc5c4CCN3C(=O)[C@@H]12 | -2% | / | 0 | / | -9.6% | / | /
57 | O=C(Cc1ccc(O)cc1)NC1CCCCCC1 | -11% | 5% | -7 | -5.3 | / | 1% | -1
58 | COCCCNc1nc2nonc2nc1N1CCC(C(C)N2CCOCC2)CC1 (stereo unspecified) | 12%[15.4 µM] | 15% | -13 | -1.9 | / | -3% | -4
59 | CCNc1nc(NC(C)CC)nc(ON=C(C)C)n1 (stereo unspecified) | 0% | 1% | -6 | 1.2 | 0.7% | 2% | 3
60 | COc1cc(NC(=O)C(=O)NCCN2CCNCC2)c(OC)cc1Cl | -4%[15.4 µM] | 15% | -4 | 4.5 | / | 13% | 4
61 | C=CCOC(=O)C1=C(C)NC(SCC(=O)Nc2ccccc2)=C(C#N)C1c1ccco1 (stereo unspecified) | ? | 4% | -26 | 0.9 | 46% | -12% | -13
62 | Cc1nc2ccc(Cl)cn2c1C(=O)NN | 20% | -10% | -5 | -1.6 | / | 4% | 10
